GIV-Gai inh: GIV-Galpha-i interaction inhibition. Galpha-i3/FITC-GIV peptide fluorescence polarization, 90 min; stronger effect = lower value; scaled: aluminum fluoride 0%, vehicle 100%. percent of control (FP), % (concentration not given with the values). AID 1224905. hit rate 0.42% among 210,000;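 active = replicate mean at 85% of control or lower, very high polarization wells dropped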;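 also: wells of about 15 µL received 100 nL stock; the first replicate is given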
Target sequence (P08753 whole entry, looked up): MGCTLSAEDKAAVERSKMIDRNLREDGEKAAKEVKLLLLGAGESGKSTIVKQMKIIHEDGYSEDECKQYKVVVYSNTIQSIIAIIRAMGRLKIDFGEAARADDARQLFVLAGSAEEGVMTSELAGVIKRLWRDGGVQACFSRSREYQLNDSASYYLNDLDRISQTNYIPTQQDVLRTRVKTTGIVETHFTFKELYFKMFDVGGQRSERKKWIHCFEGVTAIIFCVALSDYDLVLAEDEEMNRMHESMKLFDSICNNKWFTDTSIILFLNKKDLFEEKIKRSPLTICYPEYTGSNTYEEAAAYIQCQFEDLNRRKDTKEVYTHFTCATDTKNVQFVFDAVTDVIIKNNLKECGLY
Sa growth 42C: blocks Staphylococcus aureus growth; S. aureus RN4220 growth, OD600, 20 h, 42 °C; stronger effect = lower value; relative growth, % (concentration not given with the values); hit rate 0.53% among 170,000;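 active = growth at 42 °C up to 50% and 20 or more points under that at 30 °C, or under 10% at both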;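 also: 300 nL library stock went into each well; scaled to the means of positive and negative controls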
Sa growth 42C second temp: further read-out of Sa growth 42C, marked with its call; relative growth, %; measured here: growth at 30 °C;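 optical density after 20 h as mean of two plates; 100% = untreated growth and lower means inhibition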
An asterisk follows results filed as active; nt = no result given. Some of the compounds tested. The share of hits here may be higher or lower than overall.

(1) Cc1ccc2nc(-c3cc(Cl)ccc3NC(=O)CCC(=O)O)c(=O)[nH]c2c1
(2) CC1(C)S[C@@H]2[C@H](N=CN3CCCCCC3)C(=O)N2[C@H]1C(=O)O
(3) O=C(O)C1CCN(S(=O)(=O)c2ccc(Cl)cc2)CC1
(4) COc1ccc(-n2c(SCC(=O)c3ccc4c(c3)NC(=O)CO4)nc3ccccc3c2=O)cc1OC
(5) CN1c2ccccc2CC(C#N)(C#N)C12CCCCC2
(6) COc1cc(C[C@@H](CO)[C@H](CO)Cc2ccc(O)c(OC)c2)ccc1O
(7) CO[C@H]1C=CO[C@@]2(C)Oc3c(C)c(O)c4c(O)c(c5c(c4c3C2=O)NC2(CCN(CC(C)C)CC2)N=5)=NC(=O)C(C)=CC=C[C@H](C)[C@H](O)[C@@H](C)[C@@H](O)[C@@H](C)[C@H](OC(C)=O)[C@@H]1C
(8) CC1CN(Cc2csc(Nc3ccccc3)n2)CC(C)O1 (stereo not drawn)
(9) Oc1ccc(/C=C/c2ccncc2)cc1
(10) O=C1N[C@H](C(=O)O)CS1
screen / no.	1	2	3	4	5	6	7	8	9	10
GIV-Gai inh	nt	nt	nt	nt	nt	nt	nt	nt	nt	nt
Sa growth 42C	87	94	93	84	75	90	0.6*	0.7*	73	94
Sa growth 42C second temp	93	82	91	86	76	86	0.3*	0.1*	92	86

(11) CCc1c(C#N)c(N)nc(SCC(=O)c2ccccc2)c1C#N
(12) COC(=O)/C=C1\SC(C)C(=O)N1CC(=O)Nc1ccccc1C(F)(F)F (stereo not drawn)
(13) CSc1ccccc1NC(=O)CN1CCc2ccccc21
(14) O=c1cnn([C@@H]2O[C@H](CO)[C@@H](O)[C@H]2O)c(=O)[nH]1
(15) Clc1ccc(Oc2ccccc2)c(NC2=NCCC2)c1
(16) Cn1cc(C(=O)c2cc(F)ccc2O)cc(C#N)c1=O
(17) CCOC(=O)c1nc[nH]c1C(=O)OC
(18) O=C1CC(Nc2ccccc2)C(=O)N1c1cccc(C(F)(F)F)c1 (stereo not drawn)
(19) NC(=S)N/N=C/c1ccc(-c2ccc(S(=O)(=O)Nc3ncccn3)cc2)o1
(20) OC[C@H]1O[C@@H](n2cnc3c(N[C@H]4CCC[C@@H]4O)ncnc32)[C@@H](O)C1O (stereo partly drawn)
screen / no.	11	12	13	14	15	16	17	18	19	20
GIV-Gai inh	nt	nt	nt	nt	nt	nt	nt	nt	nt	nt
Sa growth 42C	76	111	127	96	100	80	87	84	54	92
Sa growth 42C second temp	91	87	91	70	88	92	93	98	61	90

(21) COc1cc(SC)ccc1C(=O)N(C)C1CCN(C)CC1
(22) CCCCS(=O)(=O)Nc1ccc(C)cn1
(23) CCCNC(=O)CN1CCN(Cc2ccc(OCCC(C)C)cc2)CC1
(24) COc1cc(/C=C/c2ccc(O)cc2)cc(OC)c1
(25) CCC(c1nnc(SCC(C)C#N)n1Cc1ccccc1)N(C)C (stereo not drawn)
(26) COCCn1c(SCC(=O)C(F)(F)F)nnc1-c1ccncc1
(27) Nc1ccccc1NCCO
(28) O=C(CC(SCc1ccco1)c1ccc(OC(F)F)cc1)c1ccco1 (stereo not drawn)
(29) Cc1ccc(S(=O)(=O)NC23CC4CC(C2)CC(C(=O)O)(C4)C3)cc1
(30) CCCSc1nc2ccccc2n1CC(=O)N1CCN(Cc2ccccc2)CC1
screen / no.	21	22	23	24	25	26	27	28	29	30
GIV-Gai inh	nt	nt	nt	nt	nt	nt	nt	nt	nt	nt
Sa growth 42C	105	91	89	98	104	101	88	93	88	102
Sa growth 42C second temp	91	92	86	60	89	101	92	87	93	96

(31) Cc1ccccc1Nc1nc(N)nc(Cn2ccsc2=N)n1
(32) CC(C)CN(CC(C)C)c1nc(N)c(C#N)c(CC#N)c1C#N
(33) CCN1CCN(Cc2cc(Cl)c3cccnc3c2O)CC1
(34) CCOC(=O)c1cnn(C(=O)c2ccccc2Cl)c1N
(35) Cc1noc2nc(-c3cccs3)cc(C(=O)NNC3=NCCCCC3)c12
(36) Cc1ccc(C)n1-c1cc(Cl)ccc1N1CCCCC1
(37) C#C[C@]1(O)CC[C@H]2[C@@H]3CCc4cc(O)ccc4[C@H]3CC[C@@]21C
(38) Cn1nc(C(=O)Nc2ccccc2C(=O)NC2CCCC2)ccc1=O
(39) Cc1ccc(O)c([C@H](CCN(C(C)C)C(C)C)c2ccccc2)c1
(40) C[C@]12C=CC(=O)C=C1CC[C@@H]1[C@@H]2[C@@H](O)C[C@@]2(C)[C@H]1CC[C@]2(O)C(=O)COC(=O)CCC(=O)O
screen / no.	31	32	33	34	35	36	37	38	39	40
GIV-Gai inh	nt	nt	nt	nt	nt	nt	nt	nt	nt	nt
Sa growth 42C	94	117	74	95	95	109	89	96	93	99
Sa growth 42C second temp	91	100	89	89	89	92	87	100	75	99

(41) CCn1c(N)c(N(C)CCOc2ccccc2)c(=O)[nH]c1=O
(42) Cc1cc(O)c(C=Nc2ccccc2)c(=O)o1
(43) Cc1sc(-c2nc(-c3cccc(F)c3)no2)cc1S(=O)(=O)N1CCc2ccccc2C1
(44) COc1ccc(/C=C2\C=C(c3ccccc3)N(c3ccc(C(C)(C)C)cc3)C2=O)cc1Br
(45) O=C(c1ccc(F)cc1)N1CCN(c2cc(N3CCCCC3)c(F)cc2[N+](=O)[O-])CC1
(46) CS(=O)(=O)N1CCCN(C(=O)C2CC2)CC1
(47) COc1ccccc1Oc1cc(-c2cccc(C(=O)Nc3ccc(C)cc3C)c2)ncn1
(48) COC(=O)c1ccccc1NC(=O)CSc1nnc2c3ccccc3nc(-c3cccc(C)c3)n12
(49) CC(=O)N1CCc2c(sc(NC(=O)CS(=O)(=O)c3ccc(C)cc3)c2C(N)=O)C1
(50) CCC(=O)Nc1sc2c(c1C(=O)Nc1cccc3ccccc13)CCC2
screen / no.	41	42	43	44	45	46	47	48	49	50
GIV-Gai inh	nt	nt	106	107	112	101	105	103	115	110
Sa growth 42C	85	99	nt	nt	nt	nt	nt	nt	nt	nt
Sa growth 42C second temp	89	90	nt	nt	nt	nt	nt	nt	nt	nt

(51) O=C(c1ccc(F)cc1)N1CCc2cc(CNS(=O)(=O)c3ccc4c(c3)CCCC4)ccc21
(52) CCC(CC)C(=O)N1c2cc(C)c(C)cc2C(=C2SC(C(=O)OC)=C(C(=O)OC)S2)C(=S)C1(C)C
(53) COc1cc(OC)c(NC(=O)N2CCN(c3nc4cc(Br)ccc4n4cccc34)CC2)cc1Cl
(54) Cc1cc(C)nc(NS(=O)(=O)c2ccc(NC(=O)CCCOc3ccc(Cl)cc3)cc2)n1
(55) O=C(NC1CC1)c1ccc2nc3[nH]c4ccccc4c3nc2c1
(56) CCCCOc1ccc(C(=O)Oc2ccc(C#N)cc2)cc1
(57) NS(=O)(=O)c1ccc(CCNc2ncnc3c2c(-c2ccccc2)cn3-c2cccc(Cl)c2)cc1
(58) COC(=O)CCC/C=C1/SCC(NC(=O)c2ccccc2)C1=O (stereo not drawn)
(59) O=C1NC(c2ccccc2F)Nc2sc3c(c21)CCCC3 (stereo not drawn)
(60) Cc1nnc2ccc(NS(=O)(=O)c3ccc(Br)cc3)nn12
screen / no.	51	52	53	54	55	56	57	58	59	60
GIV-Gai inh	100	105	105	107	103	105	110	105	113	104
Sa growth 42C	nt	nt	nt	nt	nt	nt	nt	nt	nt	nt
Sa growth 42C second temp	nt	nt	nt	nt	nt	nt	nt	nt	nt	nt

5 entries picked at random from those above:
(59) O=C1NC(c2ccccc2F)Nc2sc3c(c21)CCCC3 (stereo not drawn)
(53) COc1cc(OC)c(NC(=O)N2CCN(c3nc4cc(Br)ccc4n4cccc34)CC2)cc1Cl
(54) Cc1cc(C)nc(NS(=O)(=O)c2ccc(NC(=O)CCCOc3ccc(Cl)cc3)cc2)n1
(56) CCCCOc1ccc(C(=O)Oc2ccc(C#N)cc2)cc1
(57) NS(=O)(=O)c1ccc(CCNc2ncnc3c2c(-c2ccccc2)cn3-c2cccc(Cl)c2)cc1
screen / no.	59	53	54	56	57
GIV-Gai inh	113	105	107	105	110
Sa growth 42C	nt	nt	nt	nt	nt
Sa growth 42C second temp	nt	nt	nt	nt	nt

Some entries already given, showing only GIV-Gai inh and Sa growth 42C:
No.	SMILES	GIV-Gai inh	Sa growth 42C
60	Cc1nnc2ccc(NS(=O)(=O)c3ccc(Br)cc3)nn12	104	nt
58	COC(=O)CCC/C=C1/SCC(NC(=O)c2ccccc2)C1=O (stereo not drawn)	105	nt
52	CCC(CC)C(=O)N1c2cc(C)c(C)cc2C(=C2SC(C(=O)OC)=C(C(=O)OC)S2)C(=S)C1(C)C	105	nt
56	CCCCOc1ccc(C(=O)Oc2ccc(C#N)cc2)cc1	105	nt
55	O=C(NC1CC1)c1ccc2nc3[nH]c4ccccc4c3nc2c1	103	nt
53	COc1cc(OC)c(NC(=O)N2CCN(c3nc4cc(Br)ccc4n4cccc34)CC2)cc1Cl	105	nt

The results go on.
(61) CN1C(=O)N(C)C2(c3ccccc3)NNC(N)=NC12c1ccccc1 (stereo not drawn)
(62) COCCCNC(=O)C1CCCN(c2ncc(-c3ccc(F)cc3)cn2)C1 (stereo not drawn)
(63) CCN(CC)S(=O)(=O)c1ccc(-c2cn3cc(C)ccc3n2)cc1
(64) O=C(CCCn1c(SCC(=O)Nc2cccc(C(F)(F)F)c2)nc2ccccc2c1=O)NCc1ccco1
(65) COc1ccc(N2CC(C(=O)NCc3nnnn3-c3ccc(F)c(F)c3)CC2=O)cc1 (stereo not drawn)
(66) NC(=O)CSc1nc(-c2ccccc2)cc(-c2ccccc2)n1
(67) COc1ccc(C2C=C(c3ccc(C)cc3)NC(=S)N2)cc1 (stereo not drawn)
(68) Cc1[nH]c(C)c(S(=O)(=O)N(C)Cc2ccco2)c1-c1nc(C2CC2)no1
(69) O=C(NC1CC1)C1(c2cccc(F)c2)CC1
(70) N#Cc1c(N)nc(SCC(=O)c2ccc([N+](=O)[O-])cc2)c(C#N)c1-c1ccccc1
screen / no.	61	62	63	64	65	66	67	68	69	70
GIV-Gai inh	105	108	102	109	107	112	106	107	96	110
Sa growth 42C	nt	nt	nt	nt	nt	nt	nt	nt	nt	nt
Sa growth 42C second temp	nt	nt	nt	nt	nt	nt	nt	nt	nt	nt

(71) CC(NC(=O)C1CCN(c2ncnc3c2oc2ccccc23)CC1)c1ccccc1 (stereo not drawn)
(72) CCN(CC)C(=O)Cc1c(C(=O)O)c(C)cn1CC
(73) O=C(Nc1cc(Cl)cc(Cl)c1)/C(=C\c1ccc2c(c1)OCO2)NC(=O)c1ccccc1Br
(74) COc1cc(-c2nc3sc4c(c3c(=O)[nH]2)CCCC4)cc(Cl)c1OCc1ccccc1F
(75) CCCS(=O)(=O)c1nc2ccc(NS(=O)(=O)c3ccc(C(C)C)cc3)cc2s1
(76) O=C(Nc1ccccc1)c1ccc(=O)n(Cc2ccccc2)n1
(77) O=C(NCC(F)(F)F)c1cccn2c(-c3ccc(F)cc3)nnc12
(78) CN(C)N1C(=O)/C(=C\c2cc3c(cc2[N+](=O)[O-])OCO3)SC1=Nc1ccccc1
(79) Cn1c(Cc2ccccc2)nc2c(c1=O)C1(CCCCC1)Cc1ccccc1-2
(80) Cc1nn(-c2nc3ccccc3[nH]2)c2c1C(c1ccc(F)c(Br)c1)CC(=O)N2 (stereo not drawn)
screen / no.	71	72	73	74	75	76	77	78	79	80
GIV-Gai inh	103	103	107	106	100	98	103	111	112	96
Sa growth 42C	nt	nt	nt	nt	nt	nt	nt	nt	nt	nt
Sa growth 42C second temp	nt	nt	nt	nt	nt	nt	nt	nt	nt	nt

(81) CCC(=O)N1c2ccccc2NC2=C(C(=O)CC(C)(C)C2)C1c1ccccc1OC (stereo not drawn)
(82) CC1(C)Cc2ccccc2-c2nc3n(c(=O)c21)CC(C#N)S3 (stereo not drawn)
(83) CN(C)C(=O)c1csc2nc(-c3ccc(NC(=O)Cc4ccccc4F)cc3)cn12
(84) S=C1NC2(CCCCCCC2)NN1c1ccccc1
(85) CC1(C)c2ssc(=S)c2-c2ccccc2N1C(=O)c1cccc(Br)c1
(86) Cc1ccc(-n2ncc3c(N4CCN(c5ccccc5)CC4)ncnc32)c(C)c1
(87) CC(C)Cn1c(=O)c2sccc2n2c(=O)n(CC(=O)NC3CCCC3)nc12
(88) O=C(O)c1ccc(NC(=O)C2CC(=O)N(CCc3ccccc3)C(=NCCc3ccccc3)S2)cc1 (stereo not drawn)
(89) CCOC(=O)c1cc(C)nc2c1c(=O)n(Cc1nc(-c3ccccc3)oc1C)c(=O)n2C
(90) Cc1ccc(-n2nc(C)c3c2NC(=O)CC3C(=O)c2ccccc2)cc1Cl (stereo not drawn)
(91) COc1ccc(S(=O)(=O)NC2CCN(C(=O)c3cncc(Br)c3)CC2)cc1
(92) Nc1ccc(C(=O)N2N=C(C(F)(F)F)CC2(O)c2ccc(Br)cc2)cc1 (stereo not drawn)
(93) c1ccc(N2CCN(Cc3nc(-c4ccc(N5CCSCC5)nc4)no3)CC2)nc1
screen / no.	81	82	83	84	85	86	87	88	89	90	91	92	93
GIV-Gai inh	100	105	104	107	109	113	104	107	98	102	100	112	98
Sa growth 42C	nt	nt	nt	nt	nt	nt	nt	nt	nt	nt	nt	nt	nt
Sa growth 42C second temp	nt	nt	nt	nt	nt	nt	nt	nt	nt	nt	nt	nt	nt

Compound activity deposited in PubChem BioAssay by ICCB-Longwood Screening Facility, Harvard Medical School.
